Bioassay records as filed in PubChem BioAssay.
Tg IFNy HTS: T. gondii growth inhibition under IFN-gamma; Toxoplasma gondii growth in IFN-gamma-treated host cells; active compounds read low; reference of the scale not given here; activity change, negative = inhibition, %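 (about 20 µM by stock and volumes)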; 69,000 tested, 3.8% active; AID 1259416;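 active = below -70%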;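 also: host cells are HeLa cells infected with Toxoplasma gondii; parasite growth read as luciferase light; one replicate is shown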
The depositor's hits bear a star; i = inactive; & = joins results of further samples.

SMILES	Tg IFNy HTS
CCOC[C@H]1CCC2C(CCN2C(=O)c2ccc3[nH]ccc3c2)O1 (stereo partly specified)	-1
CN1CC(C(=O)O)CN2CCN(Cc3nccs3)CC2C1 (stereo unspecified)	0
CCOCC1c2c(cnn2CC)CCN1C(=O)Cc1ccccn1 (stereo unspecified)	-46
CC(C)(C)NS(=O)(=O)c1ccc(CCC(=O)N2CCCCCC2)cc1	-2
O=C(c1ccoc1)N1CCC2(CC1)CC(Oc1cccnc1)CO2 (stereo unspecified)	-1
COCCN1C(=O)C2N(c3ccccc3C)C(=O)C3CC(=O)OC32C1CC(C)=O (stereo unspecified)	77
CC(C)(C)c1ccc(C23OC(=O)C4(CCCC4)C2OC(=O)C32CCCC2)cc1 (stereo unspecified)	-73*
COc1cc(OC)cc(C(=O)NC2CCN(c3ncc4c(n3)CCOC4)CC2)c1	166
NCC(=O)Nc1ccc(-c2cccc(C(F)(F)F)c2)cc1F	-57
Cc1nn(C)c(N2CCOCC2)c1CN1CCCC(C(=O)c2ccccn2)C1 (stereo unspecified)	-15
CC(=O)Oc1nc(-c2ccc(C(C)(C)C)cc2)n(-c2ccccc2)n1	-26
O=C1C[C@H]2[C@@H](CCN2Cc2ccco2)N1c1ccsc1	-22
c1cc(-c2nc3c4c5c(sc4ncn3n2)CCCC5)ccn1	-7
Cc1ccccc1NC(=O)N1CCn2nnc(COc3cccnc3)c2C1	7
CCc1cnc(N2CCC3(CC(N(C)Cc4ccccn4)CO3)C2)nc1 (stereo unspecified)	-23
CO[C@H](CN(C)S(=O)(=O)c1ccc(F)cc1)[C@H](C)CN(Cc1ccccc1Cl)[C@@H](C)CO	29
CCN1CCc2nc(N3CCOCC3)nc(NC3CC3)c2C1	2
O=C(Nc1cccc2c1CCCC2)c1cccs1	22
COc1cc(OC)c2c(c1)OC(c1ccccc1)CC2=O (stereo unspecified)	18
Cc1cccc(-c2nc(Cn3nnc(-c4nc(-c5ccc(F)cc5)no4)c3C)c(C)o2)c1	1
CN1C(=O)c2cc(NC(=O)Cc3cccs3)ccc2OC[C@H]2O[C@H](CC(=O)NCCc3ccncc3)CC[C@@H]21	11
O=C(Nc1ccccc1CN1CCCC1)c1ccc(Cn2cnnn2)cc1	9
NC(=O)N1CC[C@@H](OCC2CC2)[C@@H]1Cc1ccncc1	-18
Cc1cc(C)cc(NC(=O)c2c(O)c3ccccc3[nH]c2=O)c1	359
CCSc1nnc(NC(=O)CCc2ccc(C)o2)s1	19
COCC(=O)N1[C@H](C#N)[C@@H](c2ccccc2-c2cccc(C)c2)[C@@H]1CO	-27
CN(C)S(=O)(=O)N1C[C@H]2CCC[C@]2(COCc2ccncc2)C1	191
C[C@H](CO)N1C[C@H](C)[C@H](CN(C)S(=O)(=O)c2cn(C)cn2)OCc2cnnn2CCCC1=O	51
O=C(Nc1nccs1)c1ccc(COc2ccccc2Cl)o1	-52
COc1ccccc1OC(C)C(=O)N1CCc2[nH]nc(-c3ccccc3)c2C1 (stereo unspecified)	9
CCOc1ccc(C(=O)NC2CCN(S(=O)(=O)c3ccccc3)CC2)cc1	-84*
COc1ccc(CCNc2nc(SCc3ccc(Cl)cc3)nc3ccccc23)cc1OC	-24
Cc1cc(C)cc(C(=O)NCCc2csc(-c3ccc(F)cc3)n2)c1	-82*
CO[C@H]1CN(C)C(=O)c2cc(NC(=O)C3CCCCC3)ccc2OC[C@@H](C)N(Cc2cccnc2)C[C@H]1C	69
Cc1ccc2nc(C3CCN(C(=O)CCC4C(=O)Nc5ccccc54)CC3)[nH]c2c1 (stereo unspecified)	29
Cc1ccc(Cl)c(-c2nccn2CCN2CCNC2=O)c1F	2

Of the compounds above, four have a thiophene ring, fused or not.
SMILES	Tg IFNy HTS
O=C1C[C@H]2[C@@H](CCN2Cc2ccco2)N1c1ccsc1	-22
c1cc(-c2nc3c4c5c(sc4ncn3n2)CCCC5)ccn1	-7
O=C(Nc1cccc2c1CCCC2)c1cccs1	22
CN1C(=O)c2cc(NC(=O)Cc3cccs3)ccc2OC[C@H]2O[C@H](CC(=O)NCCc3ccncc3)CC[C@@H]21	11

Additional compounds.
SMILES	Tg IFNy HTS
O=C(Nc1cccc(Cn2cncn2)c1)c1cc(-c2ccccn2)nc2ccccc12	-29
CCCn1c(=O)c(-c2nc(-c3cccc(Cl)c3)no2)c(O)c2ccccc21	-2
COc1ccc(S(=O)(=O)Nc2ccc3c(c2)C(=O)N([C@@H](C)CO)C[C@@H](C)[C@H](CN(C)Cc2ccc(C(F)(F)F)cc2)OCCCC[C@@H](C)O3)cc1	-112*
Cc1cc2c(OCC(CNC(C)(C)C)OC(=O)c3ccccc3)cccc2[nH]1 (stereo unspecified)	23
CC(=O)NC1(c2ccccc2)CCN(CC(=O)Nc2ccccc2-n2ccnc2)CC1	-7
Cc1ccc(C(=O)NC2CCC(n3cnnc3)CC2)cc1N1CCNC1=O (stereo unspecified)	0
O=C(c1ccco1)N1CCC2(CC1)Nc1cccnc1NC2=NCc1ccccc1	-5
COc1ccccc1-c1cccc(C(=O)N2CCC3(CC2)CNC(=O)O3)c1	35
O=C(Nc1cccc2c1CCCC2)C1CCN(C(=O)NCc2ccccc2)CC1	51
Cc1ccsc1C(=O)N1CCC(N(C)C)CC1C(=O)O (stereo unspecified)	1
CC1CCN(S(=O)(=O)c2ccc3c(ccc(=O)n3CC(=O)NCc3ccccn3)c2)CC1	46
COc1ccccc1-c1nc(Cn2nnc(C(=O)Nc3cc(F)ccc3C)c2C)c(C)o1	35
CC(C)n1cccc1CN(Cc1ccccn1)C1CC(C)(C)NC(C)(C)C1	-3
OCCNc1cc(-c2nccc(C3CCCC3)n2)c2cc[nH]c2n1	7
COCC(=O)N1CC[C@@H]2N(S(C)(=O)=O)CC[C@@]2(C(=O)N2CCOCC2)CC1	4
Cc1ccc(S(=O)(=O)N2CCn3cnc(COc4cccnc4)c3C2)cc1	0
CCOc1ccc(-c2nc(CN3CCN(C(=O)Nc4ccccc4OC)CC3)c(C)o2)cc1	-23
O=c1[nH]c(=O)c2cc(S(=O)(=O)Nc3ccc(Oc4cccnc4)cc3)ccc2[nH]1	34
CCCCCCCCc1nc2ccccc2[nH]1	-36
CCS(=O)(=O)N1CCc2ncnc(-c3ccsc3)c2CC1	-7
COc1ccc(S(=O)(=O)Nc2ccc3c(c2)C(=O)N([C@H](C)CO)C[C@@H](C)[C@H](CN(C)C(=O)Nc2c(C)noc2C)OCCCC[C@@H](C)O3)cc1	-32
CCCS(=O)(=O)N1CCC2(CC1)CC(N(C)Cc1ccccc1)CO2 (stereo unspecified)	-30
CCN(Cc1ccccc1F)C(=O)c1c[nH]c(=O)[nH]1	-2
CCc1cc(CN(C)C(=O)c2cc(-c3ccc(O)cc3)n[nH]2)on1	10
N#Cc1cccc(NC(=O)Cn2c(=O)cc(C(=O)N3CCOCC3)c3ccccc32)c1	5
O=C1OC(=O)C2C3CCC(O3)C12 (stereo unspecified)	-75*
Cc1ccc(S(=O)(=O)N(C)c2cncc(C(=O)NCc3ccccn3)c2)cc1	-1
NC(=O)c1ccccc1-c1cccc(C(=O)O)c1	-41
O=C(C1COc2ccccc2O1)N1CC(=O)N(C2CCCCC2)CC(OCc2cccnc2)C1 (stereo unspecified)	-11
CC(C)CNC(=O)c1nc(-c2ccc(Cl)cc2)n2c1CCCCC2	-100*
COc1cc(-c2cc(C)ccc2F)nc(N)n1	151
COc1ccc(C(=O)COC(=O)c2c3c(nc4ccccc24)CCCC3)cc1OC	-7
N[C@H](C(=O)O)c1ccc(O)c(C(=O)O)c1	6
CN(C)Cc1cn2c(n1)CN(C(=O)Cc1cccs1)CC2	1
Cc1cc2nc(CN(C)Cc3nc(-c4cc5c(cc4Cl)OCO5)oc3C)[nH]c2cc1C	-24
CC(C)n1nc(-c2cc3cc(O)ccc3[nH]2)c2c(N)ncnc21	-65
COc1ccc(OC)c(S(=O)(=O)Nc2ccc(-c3nc(-c4ccc(C)cc4C)co3)cc2)c1	-49
CC(C)(C)C(=O)NCCc1csc(-c2ccc(F)cc2)n1	304
CCS(=O)(=O)N1CC2(CCN(Cc3ccsc3)C2)C1	-11
CO[C@@H]1CN(C)C(=O)c2ccc(NS(=O)(=O)CC(F)(F)F)cc2OC[C@@H](C)N(C(=O)NC(C)C)C[C@@H]1C	113
Cc1c(S(=O)(=O)Nc2ccccc2OCCn2cccn2)cnn1C(F)F	-5
Cc1[nH]nc(CCC(=O)N2CCCC3(CC2)CNC(=O)O3)c1C (stereo unspecified)	9
COc1ccc(Nc2nc(-c3nnc(-c4ccc(F)cc4)o3)nc3ccccc23)cc1Cl	213
COc1cccc(-c2ccc3c(c2)[C@H]2[C@H](CCN2C(=O)c2ccccc2F)[C@H](CO)N3C)c1	-66
CCCCc1cc(=O)[nH]c(-c2ccc(CN3C[C@@H](C)O[C@@H](C)C3)cc2)n1	8
CCN(C[C@H]1[C@H](c2ccccc2)[C@H](CO)N1C(C)=O)C(=O)NC1CCCC1	-45
c1cc(-c2nccn2CCn2cccn2)c2nonc2c1	7
CC(NC1CCN(c2ccc(C(=O)NCc3cccnc3)cc2)CC1)c1cccs1 (stereo unspecified)	-22

Compounds from the list above with a furan ring, fused or not, in the order listed:
SMILES	Tg IFNy HTS
O=C(c1ccoc1)N1CCC2(CC1)CC(Oc1cccnc1)CO2 (stereo unspecified)	-1
O=C1C[C@H]2[C@@H](CCN2Cc2ccco2)N1c1ccsc1	-22
CCSc1nnc(NC(=O)CCc2ccc(C)o2)s1	19
O=C(Nc1nccs1)c1ccc(COc2ccccc2Cl)o1	-52
O=C(c1ccco1)N1CCC2(CC1)Nc1cccnc1NC2=NCc1ccccc1	-5

Next section:
SMILES	Tg IFNy HTS
NS(=O)(=O)c1nn2cc(-c3ccccc3)nc2s1	128
COc1ccc(-c2csnn2)cc1S(=O)(=O)n1nc(C)cc1C	-4
COc1cc(C=NCC2OCCc3ccccc32)cc(OC)c1 (stereo unspecified)	2
CC(=O)c1ccc(N2CCOc3c(O)cc(-c4nc(C)cnc4C)cc3C2)nc1	-17
O=C(NCCc1csc(-c2ccccc2)n1)[C@H]1CSCN1C(=O)Cc1cccs1	0
Cc1noc(C)c1NC(=O)N(C)C[C@@H]1OCCCC[C@H](C)Oc2ccc(NC(=O)Nc3ccc(C(F)(F)F)cc3)cc2C(=O)N([C@@H](C)CO)C[C@@H]1C	144
CN1C(=O)CCc2cc(NS(=O)(=O)Cc3cccc(Cl)c3)ccc21	23
CCCCNC(=O)CCC1N=C2c3ccccc3N=C(SCC(=O)OCC)N2C1=O (stereo unspecified)	-13
CO[C@@H]1CN(C)C(=O)c2cc(NC(=O)c3ccc(Oc4ccccc4)cc3)ccc2OC[C@H](C)NC[C@@H]1C	-97*
CCCNC(=O)N1CCN(Cc2nc(-c3ccc(OCC)cc3)oc2C)CC1	2
O=S(=O)(C1CC1)N1CCC2(CN(c3ncccn3)C2)C1	-52
CC(C)c1nccn1-c1ccc(NC(=O)CCCn2ccnc2)cc1	-9
C[C@H](CO)N1C[C@H](C)[C@H](CN(C)C(=O)Nc2ccc(-c3ccccc3)cc2)OCc2ccccc2-c2ccccc2C1=O	-31
CN(C)CC(=O)N1[C@H](CO)[C@H](c2ccccc2)C12CN(CCC(F)(F)F)C2	-56
CC(=O)N1C2CCN(c3ncc(F)cn3)CC2C[C@H]1Cn1cncn1 (stereo partly specified)	99
CN1CCN(C2CCN(C(=O)c3ccccc3)CC2)CC1C(=O)O (stereo unspecified)	-51
O=C(O)c1cc(-c2ccoc2)cc(S(=O)(=O)N2CCCC2)c1	-11
COc1ccc2c(c1)NC1(CCN(C(=O)Nc3ccc(Cl)cc3)CC1)c1cccn1-2	i
CC(C)C(=O)N1CC2CN(C(=O)c3cscn3)CC2C1 (stereo unspecified)	-3
COc1ccccc1OCC(=O)N1CCC[C@]2(C[C@@H](OC)CO2)C1	4
O=C(O)C1CSCN1 (stereo unspecified)	8
COc1ccccc1CN(Cc1cccnc1)Cc1ccoc1	-4
COC(=O)[C@@H]1C[C@H](NC(=O)c2ccc(-c3ccccc3)[nH]2)CN1C	18
Cc1oc(-c2ccccc2Cl)nc1CN1C(=O)C(O)(c2ccccc2)c2ccccc21 (stereo unspecified)	-96*
C[C@@H]1CN([C@H](C)CO)C(=O)c2cc(N(C)C)ccc2O[C@@H](C)CCCCO[C@@H]1CN(C)Cc1ccc(C(=O)O)cc1	-2
CCSc1ccc(-c2sc(-c3ccc(F)cc3)nc2C)nn1	190
COc1cc(OC)c(NC(=O)c2nc(Nc3ccc(Cl)cc3)c3ccccc3n2)cc1Cl	-48
O=C(/C=C/c1ccc(O)cc1)c1ccc(O)cc1O	-18&11
C[C@H]1CN([C@@H](C)CO)C(=O)c2cc(NC(=O)C3CC3)ccc2O[C@@H]1CN(C)S(=O)(=O)c1ccccc1	-21
COc1nccnc1N1CC(c2ccncc2)C1	5
COc1cccc(CNC(=O)C[C@@H]2CC[C@H]3[C@H](COc4ccc(NC(=O)c5cccs5)cc4C(=O)N3C)O2)c1	-5
COc1ccc2[nH]c3c(c2c1)CCNC31C(=O)N(CC(C)C)c2ccccc21 (stereo unspecified)	95

Sorted by SMILES length (descending): 3 of the compounds above
SMILES	Tg IFNy HTS
C[C@@H]1CN([C@H](C)CO)C(=O)c2cc(N(C)C)ccc2O[C@@H](C)CCCCO[C@@H]1CN(C)Cc1ccc(C(=O)O)cc1	-2
COc1cc(OC)c(NC(=O)c2nc(Nc3ccc(Cl)cc3)c3ccccc3n2)cc1Cl	-48
O=C(/C=C/c1ccc(O)cc1)c1ccc(O)cc1O	-18&11

Not all compounds are listed (hit frequency here may not be typical).
